VACV Venus inh – qHTS for Stage-Specific Inhibitors of Vaccinia Orthopoxvirus: Venus Reporter Primary qHTS. Vaccinia virus Venus reporter expression, fluorescence. Potency, µM (series often up to 36.5 µM), inactives show top-dose activity change, negative = inhibition, hits mostly inhibitors. 330,000 tested, 0.46% active; active means well fitted inhibition curve with a large enough effect; inconclusive means small, poorly fitted or top-dose-only effect; inactive means no such curve, though single readings can be large or run the other way; tested in A549 cells; also: nearly all actives have a fitted effect of over 30% in size; inactives centre near -10
Vaccinia mCherry – qHTS for Stage-Specific Inhibitors of Vaccinia Orthopoxvirus: mCherry Reporter Primary qHTS; AID 720579, 2013; Vaccinia virus mCherry reporter infection, fluorescence; about a quarter of the inactives have no number; Potency, µM (top dose mostly 36.5 µM), for inactives: at the highest dose activity change, negative = inhibition, most hits filed as inhibitors; 310,000 tested, 0.63% active; active = well fitted inhibition curve with a large enough effect; inconclusive = small, poorly fitted or top-dose-only effect; inactive = no such curve, though single readings can be large or run the other way; tested in A549 cells; also: nearly all actives have a fitted effect of over 35% in size; inactives centre near -10
Starred values were filed as active, the others as inactive; i = inactive; ? = inconclusive; nt = no result given; [ ] = another dose, or the depositor's remark. % is scaled to controls: 0 for no effect and ±100 for the full control effect; potency is read from the fitted curve at half-maximal effect. Compounds as they come (roughly 0.82% active in at least one column).

SMILES	VACV Venus inh	Vaccinia mCherry
CC1=C(C(=O)N2CCOCC2)C(c2ccccc2F)C2=C(CCCC2=O)N1 (stereo unspecified)	-2%	i
COC(=O)C1CCN(C(=O)COC(=O)Cc2c[nH]c3ccccc23)CC1	-6%	nt
CCOC(=O)c1c(C)[nH]c(C)c1S(=O)(=O)N1CCC(C(=O)N2CCN(c3cc(C)ccc3C)CC2)CC1	?	?
COc1ccc(C(=O)N/N=C/C(C)c2ccccc2)cc1OC (stereo unspecified)	-11%	-20%
CCCn1cnc2cc(NC(=O)c3cc(OC)c(OC)c(OC)c3)ccc21	0%	-7%
N/C(=N\N=C\c1ccc2c(c1)OCO2)SC1CC(=O)N(c2ccc(C(=O)O)cc2)C1=O (stereo unspecified)	-7%	-22%
Oc1ccc(-c2cnc3ccccc3n2)cc1	-15%	0%
COc1cc(NC(=O)Cn2cnc3c(OCc4ccccc4)ncnc32)cc(OC)c1OC	-22%	-10%
Cc1ccc(-c2nc3ccccc3nc2Cl)cc1	21%	-3%
Cc1oc(-c2cc(F)ccc2F)nc1CN1CCN(c2ncnc3ccccc23)CC1	?	-26%
Cc1cc(=O)oc2c3c(ccc12)OC/C3=N/N	-5%	-15%
CCCCCCn1c(=O)c(C(=O)Nc2cnccn2)c(O)c2ccccc21	-8%	i
CCCCCCCCS(=O)C1CCS(=O)(=O)C1 (stereo unspecified)	0%	nt
CCn1c(COc2ccc3ccccc3c2C)nnc1SCC(=O)Nc1cccc(C(=O)O)c1	-16%	-7%
Cc1[nH]c(C)c(S(=O)(=O)N(C)Cc2ccccc2)c1C(=O)N1CCCCC1	0%[7.34 µM]	4%[7.34 µM]
CCN(Cc1ccccc1)C(=O)c1cc(S(=O)(=O)N2CCOCC2)cn1C	0%	i
Cc1nc(N2CCCC2)c2c(C(=O)Nc3cccc(Cl)c3C)c(C)oc2n1	-10%	i
COc1ccc2[nH]c(=O)c(CNc3ccccc3)cc2c1	-17%	nt
CC(C)(C)c1ccc(CNC(=O)c2ccc3c(c2)NC(=O)CO3)cc1	-8%	i
CCn1c(SCC(=O)Nc2ccc(C)cc2)nnc1-c1ccccn1	-17%	-13%
O=C(Nc1ccccc1)N(Cc1cccs1)C1CCCC1	-11%	nt
CC(C(=O)c1ccc(-c2ccccc2)cc1)[n+]1ccccc1 (stereo unspecified)	-27%	-27%
Fc1cccc(Cl)c1CSc1nnc(CN2CCOCC2)n1-c1ccccc1	-10%	nt
CC12CCC3c4cc(CN5CCOCC5)c(O)cc4CCC3C1CCC2=O (stereo unspecified)	-16%	-26%
O=C(CN1CCCCCC1)Nc1ccccc1	-2%	i

Next part:
SMILES	VACV Venus inh	Vaccinia mCherry
O=C1NCCCC1C(=O)NCCNC(=O)C(F)(F)F (stereo unspecified)	-9%	-5%
Cc1cccc2cc3c(NC(=O)C(C)(C)C)nn(CC(C)C)c3nc12	-3%	i
CCN(c1ccccc1)S(=O)(=O)c1cc(C(=O)Nc2ccccc2Cl)ccc1F	-20%	-10%
NNC1=N[C@H]2CS(=O)(=O)C[C@H]2S1	-13%	-7%
CCCCc1cc(=O)oc2cc(OCc3nn[nH]n3)ccc12	-8%	-9%
CCCOc1ccc(C(=O)NC(=S)Nc2nc3ccccc3s2)cc1	-7%	-19%
O=C1CN(S(=O)(=O)c2cc(C(=O)O)ccc2Cl)c2ccccc2N1	9%	1%
OCCC1CN(C/C=C/c2ccco2)CCN1Cc1ccccc1 (stereo unspecified)	-9%	-1%
O=C(CSc1ccc(-c2ccc3c(c2)OCO3)nn1)Nc1nccs1	-11%	-1%
Nc1ncnc2c1[nH]c(=O)n2C1OC(CO)C(O)C1O (stereo unspecified)	5%	4%
Cn1c(=O)c2c(nc(N3CCCCCC3)n2CC(=O)c2ccc(Br)cc2)n(C)c1=O	-7%	i
O=C(COc1ccccc1)Nc1c2c(nn1-c1ccc(F)cc1)CS(=O)(=O)C2	-7%	-10%
COc1ccccc1OCC(=O)N/N=C1/C=C(C)CC1	-8%	i
CCN(CC)C(=O)COc1ccc(N(C)S(=O)(=O)c2ccc(NC(C)=O)cc2)cc1	-1%	-5%
Cc1ccc[n+](-c2[nH]c(=O)sc2/C=N/N=C(\[O-])CCn2c3ccccc3c3ccccc32)c1	-8%	-13%
CCc1ccc(NC(=O)C(=O)N/N=C(\C)CC(=O)NCc2ccc(Cl)cc2)cc1	-21%	-5%
O=C(NC1=NCCS1)c1ccncc1	-26%	nt
O=C(Nc1nccs1)c1ccc(F)c(S(=O)(=O)N2CCOCC2)c1	-13%	i
Cc1ccc(C(=O)COC(=O)C(Cc2c[nH]c3ccccc23)NC(=O)c2ccc(Br)cc2)cc1 (stereo unspecified)	-4%	-8%
Cc1nn(CC(=O)NCc2cccc3ccccc23)c(=O)c2ccccc12	?	-1%
Cn1cnc(S(=O)(=O)N2CCCC(c3cc(C(=O)Nc4ccc(F)c(Cl)c4)no3)C2)c1 (stereo unspecified)	-11%	i
O=C(NC(=S)N1CCN(c2ccc([N+](=O)[O-])cc2)CC1)c1ccccc1	-6%	-20%
Cc1cc(C(=O)N/N=C/C=C/c2ccccc2)c(C)o1	-19%	-6%
CCn1cc(CCC(=O)O)c(C)n1	-10%	0%
COc1ccc(C(=O)NCC(c2cccnc2)N2CCc3ccccc3C2)cc1OC (stereo unspecified)	-5%	-3%

Other structures.
SMILES	VACV Venus inh	Vaccinia mCherry
CCCC(=O)Nc1sc(-c2ccccc2)c(-c2ccccc2)c1C(=O)O	-23%	-30%
Cc1cc(N2CCN(C)CC2)nc2ccc(NC(=S)N3CCCCC3)cc12	-16%	-22%
COc1ccc(-c2cc(C(=O)NCCN3CCOCC3)c3ccccc3n2)cc1OC	-9%	-16%
O=C(COc1ccccc1)Nc1ccc2nc(SCC(=O)N3CCOCC3)sc2c1	-23%	-17%
COc1ccc(OCCCC(=O)OC(C)C(=O)Nc2ccc(C)cc2)cc1 (stereo unspecified)	-8%	i
N#Cc1ccccc1CSc1nc2ccsc2c(=O)n1Cc1ccccn1	-20%	-24%
O=C(CSc1nc2scc(-c3ccccc3)c2c(=O)[nH]1)NCCc1ccccc1	-11%	i
O=c1cc(COc2ccc(Cl)c(Cl)c2)nc2sccn12	-6%	i
c1ccc(N=P(c2nc3ccccc3o2)(N2CCOCC2)N2CCOCC2)cc1	-18%	-9%
COc1ccc(NC(=O)CSc2nc3nc(C)cc(C)c3c(=O)[nH]2)cc1OC	-5%	0%
Oc1c(Br)cc(Cl)cc1C=Nc1ccc(N2CCOCC2)cc1	-18%	-6%
Cc1ccc(N(C)C(=O)N2CCN(c3ccccn3)CC2)cc1	-4%	i
Nc1cc2c(cc1[N+](=O)[O-])-c1ccccc1C2=NO	-22%	?
Cc1ccc(Cn2c(=O)n(Cc3ccccc3)c(=O)c3c(C)c(C)sc32)cc1	-2%	-8%
COc1cc(NC(=O)CN2C(=O)c3ccccc3C2=O)c(C(=O)O)cc1OC	1%	-14%
CC1CCN(S(=O)(=O)c2ccc(C(=O)N3CCN(c4ccccc4F)CC3)cc2)CC1	-17%	-15%
Cc1ccc(CN(Cc2ccccn2)C(=O)Nc2c(F)cccc2F)cc1	-10%	i
COc1ccc([C@@H]2CC(=O)[C@@H]3CN(S(=O)(=O)c4ccc(Cl)cc4)[C@H](c4ccc(C)cc4)C[C@@H]3N2S(=O)(=O)c2ccccc2)cc1	-13%	1%
C=CCN(C)CCCCCCOc1ccc(C(=O)c2ccc(Br)cc2)c(F)c1	?	-24%
CN(Cc1ccccc1)C(c1ccnc2ccccc12)c1nnnn1-c1ccc2c(c1)OCCO2 (stereo unspecified)	-6%	-7%
Cc1c(NC(=O)c2cc(CC(C)C)on2)c(=O)n(-c2ccccc2)n1C	0%	-17%
Cc1ccc(C)c(OCc2nnc(SCC(=O)NC(=O)NCc3ccco3)o2)c1	5%	i
O=C(c1ccccc1F)N1CCN(Cc2nc3sc4c(c3c(=O)[nH]2)CCCC4)CC1	-12%	36%[activator]
CCN(CC)S(=O)(=O)c1ccc(C)c(NC(=O)c2cc(C)oc2C)c1	-18%	i
CN(C)C(=O)CCc1ccc2c3c([nH]c2c1)[C@]1(CCc2ccccc2)[C@@H](C(=O)N2CCCCC2)C[C@H](CC(=O)NCCC2=CCCCC2)C(=O)N1CC3	?	?

(further entries)
SMILES	VACV Venus inh	Vaccinia mCherry
Cc1cc(S(=O)(=O)C(CNC(=O)c2ccc(OC(C)C)cc2)c2cccs2)ccc1F (stereo unspecified)	?	-31%
COc1ccc(CN2CCN(C(=O)c3ccccc3F)CC2)c(OC)c1OC	4%	-5%
Cn1ccc2c(-c3cccc(C=O)c3F)cc3c(c21)C1CCC3C1 (stereo unspecified)	-4%	i
CN(C(=O)c1ccc(NC(=O)Cc2cccc(NC(=O)C3CCCN(C(=O)C4CCC4)C3)c2)cc1)C1CCCC1 (stereo unspecified)	-25%	i
Cc1ccc(S(=O)(=O)/N=C(\c2ccccc2)N(C)S(=O)(=O)c2ccccc2)cc1	-13%	-14%
CCCN(CCC)CCNC(=S)Nc1ccc2nc3n(c(=O)c2c1)CCCCC3	-10%	-11%
Cc1cc(S(=O)(=O)NCCc2csc(-c3cccc(F)c3)n2)ccc1F	11µM*	?
COc1ccccc1/C=C1\NC(=S)N(CC2CCCO2)C1=O (stereo unspecified)	-12%	-4%
CC(C)C(=O)NCCc1nc2ccccc2n1CCOc1ccccc1	-10%	i
O=c1c2cc(-c3ccccc3)sc2nc2n1N=C(c1cccs1)CS2	-15%	-11%
CC(C)C(NC(=O)OCc1ccccc1)C(=O)O (stereo unspecified)	-12%	-12%
CC(C)CNC(=O)C1(C)CCCN1C(=O)c1cc2ccccc2s1 (stereo unspecified)	-4%	-14%
CN(C)c1ccc(N=Nc2ccccc2C(=O)OCC(=O)N2CCCC2)cc1	-7%	-8%
O=c1cc(-c2ccc(C3CCCCC3)cc2)[nH][nH]1	5%	4%
O=C1CCc2cc(S(=O)(=O)N3CCN(c4ccccc4)CC3)cc3c2N1CCC3	-7%	-14%
COc1ccc(OC)c(Nc2cc(C)nc3ccc(C)cc23)c1	-24%[7.34 µM]	-26%[7.34 µM]
COc1cccc(C2C(C(=O)Nc3ccccc3)=C(C)Nc3nnnn32)c1OC (stereo unspecified)	-13%	-14%
Cc1ccc([N+](=O)[O-])cc1NC(=O)CN(C(=O)c1ccccc1Cl)C1CCCCC1	-22%	-22%
CCOC(=O)c1ccc(N2C(=O)c3n[nH]c(-c4ccco4)c3C2c2ccc(C)cc2)cc1 (stereo unspecified)	-20%	-26%
Cc1ncc2c(c1CNC(=O)c1ccc3c(c1)OCO3)CCN(C(=O)c1ccc3ccccc3c1)C2	-27%	-7%
COc1ccc(C(CC(=O)N2CCC3(CC2)OCCO3)NS(=O)(=O)c2ccc(OC)cc2)cc1 (stereo unspecified)	-16%	nt
CCN(C[C@H]1N[C@@](C)(C(=O)OC)[C@H]2C(=O)N(Cc3ccccc3)C(=O)[C@@H]12)C(=O)Nc1ccc(F)cc1	-1%	-1%
CS(=O)(=O)c1ccc(C(=O)Nc2ccc(-c3nc4ccccc4[nH]3)cc2)cc1	0%[7.34 µM]	-5%[7.34 µM]
COc1ccccc1CCC(=O)N(C)CC(=O)Nc1ccc(Cl)c(C(F)(F)F)c1	?	-10%
CCCC1=NN2C(=N)/C(=C\c3ccc(OCCOc4ccc(NC(C)=O)cc4)c(OC)c3)C(=O)N=C2S1	-6%	-9%

4 records picked at random from those above:
SMILES	VACV Venus inh	Vaccinia mCherry
Cc1ccc(CN(Cc2ccccn2)C(=O)Nc2c(F)cccc2F)cc1	-10%	i
Cc1cccc2cc3c(NC(=O)C(C)(C)C)nn(CC(C)C)c3nc12	-3%	i
O=C(COc1ccccc1)Nc1ccc2nc(SCC(=O)N3CCOCC3)sc2c1	-23%	-17%
CCc1ccc(NC(=O)C(=O)N/N=C(\C)CC(=O)NCc2ccc(Cl)cc2)cc1	-21%	-5%

The list continues:
SMILES	VACV Venus inh	Vaccinia mCherry
COc1ccc(Br)cc1CN(C)CC(=O)Nc1cc([N+](=O)[O-])ccc1OC	-3%	-6%
COc1cc(O)ccc1-c1nc2ccc(Br)cn2c1Nc1ccccc1C	-9%[7.34 µM]	-9%[7.34 µM]
C[C@H]1CN([C@@H](C)CO)S(=O)(=O)c2ccc(Br)cc2O[C@@H]1CN(C)C(=O)Cc1ccccc1	-16%	-25%
C#CCOCCOCCOCCNc1nc(N2CCN(C(=O)CCCCCCCCCCNC(=O)[C@H]([C@@H](C)CC)n3cc(CCCCN=C(N)N)nn3)CC2)nc(N2CCN(C(=O)CCCCCCCCCCNC(=O)[C@H](CCCCN)n3cc(C)nn3)CC2)n1	7.1µM*	?
O=C(NCC1=C(c2cccc3ccccc23)C[C@@H]2CC[C@H]1N2Cc1ccco1)c1ccncc1	-13%	i
CCCCOCC(O)Cn1c(C)nc2ccccc21 (stereo unspecified)	-12%	-17%
COc1ccc(CC(=O)NCCS(=O)(=O)N2CCN(c3ccccc3F)CC2)cc1OC	-18%	-16%

By substructure, those above containing a CF3 group.
SMILES	VACV Venus inh	Vaccinia mCherry
O=C1NCCCC1C(=O)NCCNC(=O)C(F)(F)F (stereo unspecified)	-9%	-5%
COc1ccccc1CCC(=O)N(C)CC(=O)Nc1ccc(Cl)c(C(F)(F)F)c1	?	-10%

3 entries from above, in CSV form:
canonical_smiles,VACV Venus inh,Vaccinia mCherry
CCCCOCC(O)Cn1c(C)nc2ccccc21 (stereo unspecified),-12%,-17%
COc1ccc(CC(=O)NCCS(=O)(=O)N2CCN(c3ccccc3F)CC2)cc1OC,-18%,-16%
COc1cc(O)ccc1-c1nc2ccc(Br)cn2c1Nc1ccccc1C,-9%[7.34 µM],-9%[7.34 µM]

Screening results deposited in PubChem by National Center for Advancing Translational Sciences (NCATS).
